Ecoli growth: E. coli growth inhibition, primary screen, OD600; AID 1053175, 2014; OD600 absorbance (test concentration not listed); Escherichia coli growth, 23 h; stronger effect = lower value; hit rate 0.21% among 330,000;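 active = OD600 absorbance below the run mean of sample wells minus 3.6 SD, in any replicate, cut at about 0.56 in these data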;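 also: stock transfer was 300 nL into about 60 µL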
FGF22 binding: binders of human FGF22 protein, primary screen, FGF22 synaptogenesis inhibitor project, biophysical, thermal shift, single point; recombinant FGF22 thermal shift, SYPRO orange fluorescence; percent of sucrose octasulfate shift, DMSO zero; hit rate 1.5% among 340,000; calls only at 9.99 µM; Fibroblast growth factor 22 (Homo sapiens), Q9HCT0;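 active = melting point raised past a set limit in the mean and every replicate; inconclusive = no clear call; three in four hits are not shown here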
Target sequence (Q9HCT0 whole entry, looked up): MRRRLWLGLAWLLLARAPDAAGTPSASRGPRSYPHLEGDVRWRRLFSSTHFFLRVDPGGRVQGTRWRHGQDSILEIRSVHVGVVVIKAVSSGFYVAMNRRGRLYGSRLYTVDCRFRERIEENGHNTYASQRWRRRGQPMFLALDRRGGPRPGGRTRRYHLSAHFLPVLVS
RanGTP-Impb inh: inhibitors of RanGTP-importin-beta interaction, primary screen, biochemical, FRET, CFP-Ran, YFP-importin-beta, homogeneous; Ran GTPase (GTP-bound) - importin-beta complex; cell-free CFP-Ran/YFP-importin-beta FRET ratio; inhibition, % (no concentration beside the values); hit rate 1.1% among 300,000;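 active = most replicates above 15%; inconclusive = exactly half above 15%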;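 also: 0% = DMSO wells and 100% = Ran loaded with GDP instead of GTP; wells of about 40 µL received 100 nL stock; the first replicate is given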
AF4-AF9 inh: inhibitors of AF4 peptide binding to AF9, primary screen, biochemical, AlphaScreen, biotin-AF4 peptide, FLAG-AF9, single point. hit rate 0.47% among 350,000. AID 651704, 2012. inhibition, % at 10 µM. Protein AF-9 (Homo sapiens), P42568;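 active = every replicate reaching a set inhibition limit, whatever the replicate mean, cut at about 25% in these data; inconclusive = mean inhibition reaches that limit but some replicates miss it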;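 also: 0% = plate neutral control median and 100% = total signal loss; the record names both 10 and 1 µM as test concentration; the first replicate is given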
HNF4A DNA FP: change in binding of human HNF4A to DNA, primary screen, biochemical, fluorescence polarization, FITC-DNA; Hepatocyte nuclear factor 4-alpha (Homo sapiens), P41235; hit rate 0.3% among 360,000; AID 1224865, 2016; 1 h; activity change, % at 10 µM; in the data active = activity change above about 30%, passing the limit was not always enough;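 also: controls were the assay level and a saturating level of protein; the project sought stronger binding though the title names inhibitors; some compounds called inactive have numbers as strong as hits; positive values seem to mean higher polarization but the record does not say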
Target sequence (P41235 whole entry, looked up): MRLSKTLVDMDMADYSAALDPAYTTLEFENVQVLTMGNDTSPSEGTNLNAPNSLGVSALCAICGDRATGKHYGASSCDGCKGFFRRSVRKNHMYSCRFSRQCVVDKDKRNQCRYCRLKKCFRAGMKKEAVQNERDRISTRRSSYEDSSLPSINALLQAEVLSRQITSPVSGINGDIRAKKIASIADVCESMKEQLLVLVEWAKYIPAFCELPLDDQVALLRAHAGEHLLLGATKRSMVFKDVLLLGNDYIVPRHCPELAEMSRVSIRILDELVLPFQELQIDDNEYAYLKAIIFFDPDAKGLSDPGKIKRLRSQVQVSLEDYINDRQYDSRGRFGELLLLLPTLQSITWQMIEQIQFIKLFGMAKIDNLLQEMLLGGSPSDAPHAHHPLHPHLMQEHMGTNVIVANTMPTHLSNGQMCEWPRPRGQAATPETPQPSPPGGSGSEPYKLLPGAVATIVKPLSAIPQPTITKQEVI
UCH37 inh: inhibitors of human UCH37 deubiquitinase, primary screen, biochemical, Ub-AMC cleavage, fluorescence | hit rate 0.33% among 330,000 | inhibition, % (test concentration not listed) | AID 588478, 2011 | Ubiquitin carboxyl-terminal hydrolase isozyme L5 (Homo sapiens), Q9Y5K5 | purified proteasome/UCH37;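 active = mean of two replicates above 20%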;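 also: 0% = compound-free wells with enzyme and 100% = wells lacking proteasome; stock transfer was 100 nL into about 20 µL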
Target sequence (Q9Y5K5 whole entry, looked up): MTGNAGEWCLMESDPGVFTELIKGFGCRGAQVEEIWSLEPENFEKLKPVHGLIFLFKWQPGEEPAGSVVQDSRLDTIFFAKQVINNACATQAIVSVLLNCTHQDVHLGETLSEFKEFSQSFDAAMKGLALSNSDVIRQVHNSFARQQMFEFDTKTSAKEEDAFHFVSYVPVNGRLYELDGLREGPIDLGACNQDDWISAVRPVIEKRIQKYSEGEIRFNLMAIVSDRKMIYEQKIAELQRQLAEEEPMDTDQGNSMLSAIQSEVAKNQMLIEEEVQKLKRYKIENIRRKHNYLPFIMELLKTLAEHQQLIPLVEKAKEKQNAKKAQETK
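System: Proteasome-associated human UCH37 deubiquitinase; Input: 0.15 nM proteasome in added enzyme buffer; Also added: Ub-AMC substrate from 1 µM stock; Incubation: 30 min compound-proteasome preincubation then 25 min substrate reaction, room temperature; Detection: fluorescence, ex 355 nm, em 460 nm; Read-out: % inhibition of Ub-AMC cleavage fluorescence; Benchmarks: no-proteasome and no-compound wells.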
Vif A3G: inhibitors of Vif binding to APOBEC3G peptide, primary screen, biochemical, TR-FRET, GST-Vif 1-94, biotin-A3G peptide, dose response retest (AID 1117319) | Virion infectivity factor (Human immunodeficiency virus type 1 group M subtype B (isolate … | TR-FRET GST-Vif / biotin-A3G peptide binding; higher % means a stronger effect; test concentration not given here; strong numbers were not always called active | one-dose inhibition, %; IC50 in µM for titrated hits | hit rate 0.57% among 260,000;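 active = above the screen mean plus three standard deviations and confirmed in dose response; inconclusive = results disagree or hit not tested in dose response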;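 also: Vif residues 1-94 fused to GST binding biotinylated APOBEC3G peptide 110-148; 0% = full assay without inhibitor and 100% = GST in place of GST-Vif; retest series ran down from 100 µM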
Starred values were filed as active, the others as inactive; i = inactive; ? = inconclusive; . = no result given; + = active, no number; & = joins results of further samples. Not all compounds are listed, so the mix of outcomes need not match the whole.

Results follow in this order: Ecoli growth | FGF22 binding | RanGTP-Impb inh | AF4-AF9 inh | HNF4A DNA FP | UCH37 inh | Vif A3G
CC(C)=CCc1c(O)c(CC=C(C)C)c2occ(-c3ccc(O)cc3)c(=O)c2c1O
→ 0.715 | i | 1.5 | 10.6 | 0.7 | 3.9 | .
CN(C)S(=O)(=O)c1ccc(Cl)c(NC(=O)COc2ccccc2[N+](=O)[O-])c1
→ . | i | -1.5 | 3.6 | -6.0 | . | .
CCN(Cc1ccccc1)C(=O)C1CCN(C/C(C)=C/c2ccccc2)CC1
→ . | i | 3.2 | 2.2 | -0.4 | . | -5.3%
O=C(Cc1cccs1)N1CCCC(c2nc3c(nnn3Cc3cccc(Cl)c3)c(=O)[nH]2)C1 (centres undefined)
→ 0.642 | i | ? | -65.1 | -1.4 | 1.9 | 26.1%&-9.2%
N#Cc1c(N)nc(SCc2ccccn2)c(C#N)c1-c1cccs1
→ 0.612 | . | -2.8 | . | 0.8 | -1.8 | -256.5%
CSc1ccccc1NC(=O)COc1ccccc1C
→ 0.641 | i | -2.0 | -1.3 | 1.4 | 0.4 | -1.9%
Cc1ccc(S(=O)(=O)N2CCN(C(=O)COC(=O)c3nc(Cl)ccc3Cl)CC2)c(C)c1
→ 0.694 | i | . | 5.3 | 4.2 | -1.5 | .
CCCOc1ccc(C2/C(=C(/O)c3ccc(F)cc3)C(=O)C(=O)N2CCCN(C)C)cc1 (centres undefined)
→ 0.685 | . | 1.0 | . | 4.4 | 6.0 | -4.3%
CCCn1c(=O)cc(N)n(-c2ccc(OC(F)(F)F)cc2)c1=O
→ 0.643 | i | 6.0 | -6.5 | -2.4 | 1.5 | 1.8%
O=C(CC1CCCC1)N1CCCC(Nc2cccc(F)c2)C1 (centres undefined)
→ . | i | -2.5 | -10.5 | -0.6 | . | .
CCCCOCCCNC(=O)N[C@H](C(=O)OC)C(C)C
→ . | . | 5.3 | . | 0.2 | 4.3 | 18.5%
CC(C)C[C@H](NC(=O)c1nc[nH]c1C(=O)N1CCc2ccccc2C1)C(=O)OCc1ccccc1
→ . | i | -3.8 | 4.2 | 1.2 | 0.5 | -1.9%
CCCNC(=O)Cn1cnc2sc(C(=O)N3CCN(Cc4ccc5c(c4)OCO5)CC3)c(C)c2c1=O
→ 0.713 | i | -1.5 | -1.2 | 1.5 | 0.0 | 9.0%
O=C(COC(=O)c1cccnc1Cl)NC12CC3CC(CC(C3)C1)C2
→ 0.715 | i | . | -2.0 | 1.6 | 4.6 | 0.3%
CC1(C)CC(=O)C=C(c2cccc3c2sc2ccccc23)C1
→ 0.64 | i | . | 3.0 | 0.5 | 2.3 | .
O=C(c1cc2ccccc2o1)N1CCN=C1SCc1cccnc1
→ 0.73 | . | -2.2 | . | 0.4 | 1.0 | -9.2%
Cc1ccccc1-n1nnnc1SCC(=O)c1c(N)n(C)c(=O)n(C)c1=O
→ 0.679 | i | -0.5 | -10.3 | -2.1 | 2.4 | -0.2%
Cc1ccc(CNC(=O)CCC2CCCN(C(=O)c3ccc4c(c3)OCO4)C2)o1 (centres undefined)
→ 0.685 | i | 6.4 | -0.9 | 8.6 | 1.4 | .
Nc1nc(CN2CCN(c3ccccc3F)CC2)nc(Nc2ccc3c(c2)OCCO3)n1
→ 0.684 | . | -0.7 | . | -4.0 | -0.4 | 6.2%
Cc1cc(NC(=O)c2ccc(Cl)cc2)ccc1NC(=O)c1ccccc1Cl
→ 0.662 | i | ? | -1.5 | -3.6 | -13.8 | .

Results follow in this order: Ecoli growth | FGF22 binding | RanGTP-Impb inh | AF4-AF9 inh | HNF4A DNA FP | UCH37 inh | Vif A3G
O=C(NCc1ccco1)C1CCN(C(=O)c2cc3sccc3n2Cc2ccc(Cl)cc2)CC1
→ 0.688 | . | -0.7 | . | 2.5 | 0.9 | 1.6%&4.2%
CN(CC(=O)Nc1cccc(F)c1)C(=O)c1ccc(COc2ccccc2)cc1
→ 0.682 | i | 0.5 | -3.7 | 1.0 | 1.0 | 6.0%
O=C(CSc1ccc2c(c1)OCCO2)NC(=O)NC1CCCC1
→ 0.674 | . | -0.3 | . | -4.5 | 0.8 | -3.9%
CCOC(=O)c1ccc2c(c1)N(CC(=O)N1CCCCC1)C(=O)C(C)(C)O2
→ 0.698 | . | 0.4 | . | 2.0 | 3.1 | -4.8%
COc1ccc(/C=C2\CCC(C3CCCC3)C2=O)c(OC)c1OC (centres undefined)
→ 0.684 | i | 3.4 | 1.0 | -3.2 | 4.8 | 5.8%
c1ccc2c(c1)-c1ccccc1C2N1CCOCC1
→ 0.676 | i | . | -3.8 | -0.3 | 3.5 | -2.4%
CC(C)CC1C(=O)N(Cc2cn(CCC3OCCCO3)nn2)CCS(=O)(=O)N1Cc1ccc(-c2ccccc2)cc1 (centres undefined)
→ . | i | . | 2.3 | -3.2 | . | 0.9%
Nn1c(Cc2ccccc2F)nnc1SCC(=O)Nc1cccc(S(=O)(=O)NC2=NCCCCC2)c1
→ 0.701 | i | -0.5 | 0.1 | 3.9 | 0.5 | -3.7%
COc1ccc(OC)c(/C=C/C(=O)N2CCN(S(=O)(=O)c3cc(C)ccc3C)CC2)c1
→ 0.692 | i | . | -10.5 | -0.3 | -133.2 | -5.5%
CC(/C=N/NC(=O)Cn1cnc2c1c(=O)n(C)c(=O)n2C)=C\c1ccccc1
→ . | i | 9.2 | -0.1 | 2.1 | . | -6.9%
COCCn1c(SCc2nc3scc(-c4ccc(Cl)cc4)c3c(=O)[nH]2)nnc1-c1cccc(C)c1
→ 0.765 | . | -1.4 | . | 14.7 | 5.5 | -14.3%
CC(C)(C)NC(=O)C(=O)NNC(=O)c1cccc(F)c1
→ 0.696 | i | 0.4 | 0.3 | -0.9 | 4.8 | 13.9%
[2H]C([2H])(CCOS(N)(=O)=O)c1ccccc1
→ . | i | ? | 1.6 | -2.9 | 1.8 | .
COc1ccc(S(=O)(=O)N2CCC(NC(=O)c3cccnc3)CC2)cc1
→ 0.671 | i | 1.3 | 1.0 | -1.1 | -0.3 | .
Cc1ccc(-c2noc(C3CCCN(C(=O)c4ccccc4Br)C3)n2)cc1 (centres undefined)
→ 0.63 | i | 2.5 | -0.3 | 0.7 | 0.0 | .
COc1ccccc1/C=C/CN1CC(C)OC(C)C1 (centres undefined)
→ 0.664 | . | -0.1 | . | 1.5 | 2.8 | 25.9%
Cc1cc(=S)cc(C)n1CCO
→ 0.719 | . | 5.6 | . | -3.3 | 0.3 | 13.2%
CC(CNS(=O)(=O)c1ccccc1)(c1ccccc1)N1CCOCC1 (centres undefined)
→ 0.678 | i | 0.5 | -3.0 | 3.4 | 1.3 | -0.2%
Fc1cccc(CSc2nnc3ccc(-c4ccncc4)nn23)c1
→ 0.701 | i | 7.5 | . | -1.3 | 0.2 | .
c1ccc2c(c1)CC1(CCCC1)N=C2N1CCOCC1
→ 0.714 | i | 0.3 | -1.8 | 0.3 | 1.1 | -10.9%

Results follow in this order: Ecoli growth | FGF22 binding | RanGTP-Impb inh | AF4-AF9 inh | HNF4A DNA FP | UCH37 inh | Vif A3G
Cc1cccc(C(=O)N[C@H](C(=O)Nc2cc(S(=O)(=O)N3CCCCC3)ccc2C)C(C)C)c1
→ 0.727 | i | 1.2 | 1.2 | -1.3 | 2.3 | -0.5%
CCC(C)N(C(=O)c1csnn1)C(C(=O)NCc1ccc(F)cc1)c1ccco1 (centres undefined)
→ 0.736 | . | 1.4 | . | 1.3 | 2.6 | 3.0%
CCN(CC)CCNC(=O)c1cc2c(-c3cccc(OC)c3)nn(C)c2s1
→ 0.67 | i | 2.7 | 8.7 | 0.5 | -175.4 | .
O=C(O)COc1ccccc1/C=N/NC(=O)c1cccc(S(=O)(=O)N2CCOCC2)c1
→ . | i | -0.1 | 0.9 | -1.2 | . | 6.1%
COc1cc(CN(C2CCCCC2)S(=O)(=O)c2ccc(S(=O)(=O)N(C)C3CCCCC3)cc2)cc(OC)c1OC
→ 0.75 | . | 0.6 | . | -7.6 | -1.2 | -8.3%
CN(C(=O)CCc1nnc(CCCCc2ccccc2)o1)C1CCOCC1
→ 0.685 | + | 5.0 | -13.4 | -0.3 | 6.5 | 20.1%
CN(CC(=O)O/N=C(\N)c1ccc([N+](=O)[O-])cc1)S(=O)(=O)c1ccc2ccccc2c1
→ 0.76 | . | -1.7 | . | -0.8 | 5.5 | 23.3%
CC1(N(O)C=C2C=CC(=O)C=C2)CCCCC1=O (centres undefined)
→ 0.705 | i | 4.0 | -0.7 | -0.6 | 4.6 | -6.0%
Cc1cc(C(=O)N2CCCC(C(=O)c3ccc4ccccc4c3)C2)n(C)n1 (centres undefined)
→ 0.72 | i | -0.6 | -0.3 | 0.5 | -14.0 | 2.6%
COc1cccc2c1OC[C@@H](CO)[C@H]2N(C)C(=O)Nc1ccc(Cl)cc1Cl
→ 0.628 | . | 0.4 | . | 1.0 | 2.2 | 7.0%
CC(OC(=O)c1cc2ccccc2[nH]1)C(=O)N(C)c1ccccc1 (centres undefined)
→ 0.677 | i | . | -0.7 | 1.2 | -1.8 | .
O=C(COC(=O)COc1ccccc1)NCc1ccccc1
→ 0.706 | i | 0.7 | -0.9 | 6.5 | 3.4 | -1.7%
O=C1CSC(c2ccc(Cl)cc2)N1C1CCCCC1 (centres undefined)
→ 0.726 | . | -2.7 | . | 1.9 | 0.4 | 28.3%
O=C(Cn1cnc2sc(-c3ccccc3)cc2c1=O)NCCc1ccccc1
→ . | . | 6.7 | . | -0.9 | . | -2.1%
CCOC(=O)[C@]12CCC=C1N(Cc1ccco1)C(=O)[C@H](CC(=O)NCc1cccs1)C2
→ . | i | . | -4.3 | 1.6 | . | .
Cn1c(=O)c(-c2cccc(Cl)c2)c(O)c2ccccc21
→ 0.687 | i | 10.7 | -0.9 | 2.7 | 2.4 | .
O=C(c1ccc(-n2cccn2)cc1)N1CCc2c([nH]c3ccccc23)C1c1ccccn1 (centres undefined)
→ 0.697 | i | -1.4 | -8.5 | 3.0 | 2.6 | 10.1%
Cc1ccc(S(=O)(=O)Nc2ccc3c(c2)C(=O)N([C@H](C)CO)C[C@H](C)[C@H](CN(C)C(=O)Nc2cccc4ccccc24)OCCCC[C@@H](C)O3)cc1
→ . | i | . | -1.7&-4.3 | 5.9 | . | -0.9%
CC(NC(=O)Cc1cccs1)C(c1cccs1)N1CCN(c2ccccc2)CC1 (centres undefined)
→ 0.718 | . | 0.4 | . | 5.0 | 2.1 | .
Cc1nn(C(C)C(=O)NCC2CCCO2)c(=O)c2cc3occc3n12 (centres undefined)
→ 0.706 | . | 4.2 | . | 0.6 | 1.0 | 5.3%
COc1ccc(N(CC(=O)NCC2CCCO2)C(=O)CCC(=O)Nc2cc(C)on2)cc1OC (centres undefined)
→ 0.694 | i | -1.0 | -0.8 | 0.2 | 1.9 | .
Cc1ccccc1C(=O)Nc1nncs1
→ 0.7 | . | 4.8 | . | 1.4 | 1.1 | -4.3%

Screening data deposited in PubChem by several laboratories.
